RE007 growth inh = less growth of the S. pombe RE007 Vpr strain; S. pombe RE007 Vpr strain, BacTiter-Glo ATP luminescence, 24 h; control for the full effect not named in the record; hit rate 0.21% among 360,000; Potency, µM (series often up to 92.2 µM), for inactives: at the top dose activity change, negative = less growth; AID 651644; active = well fitted falling curve with a large enough effect; inconclusive = small, poorly fitted or top-dose-only effect; inactive = no such curve, though single readings can be large or run the other way;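 note: % is set by controls: 0 for no effect and ±100 for the full control effect; nearly all actives have a fitted effect of over 50% in size; the assay follows cell death caused by Vpr and the record does not say whether a fall means rescue or toxicity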
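Fission yeast RE007 carrying one integrated HIV-1 vpr copy, seeded at OD 0.01 in PMG+AL medium with 23 nL pinned compound. Grown 24 h at 30 degrees; viability read by BacTiter-Glo luminescence after 5 min.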
StopGo reporter = FMDV 2A StopGo reporter, luciferase signal | human cells with a luciferase reporter of 2A StopGo recoding; control for the full effect not named in the record | Potency, µM (series often up to 57.9 µM), for the others: at the top dose signal change, negative = less light | hit rate 1.2% among 410,000 | AID 1159524; active = well fitted falling curve with a large enough effect; inconclusive = small, poorly fitted or top-dose-only effect; inactive = no such curve, though single readings can be large or run the other way; tested in HEK293T cells; note: % is set by controls: 0 for no effect and ±100 for the full control effect; nearly all actives have a fitted effect of over 45% in size; luciferase light after 4 h
SARS PLP yeast = blocks SARS-CoV papain-like protease in a yeast assay; hit rate 0.19% among 330,000; Potency, µM (titrated, usually from 32.9 µM), without a hit: top-dose activity, positive = growth rescue; S. cerevisiae expressing SARS-CoV PLpro, growth rescue; control for the full effect not named in the record; active means well fitted rising curve with a large enough effect; inconclusive means small, poorly fitted or top-dose-only effect; inactive means no such curve, though single readings can be large or run the other way; note: 0% is about no effect; nearly all actives have a fitted effect of over 55% in size; growth read by luminescence after 48 h
An asterisk follows results filed as active; ? = inconclusive; [ ] = dose if it differs, or a comment. Potency is the fitted concentration of half-maximal effect.

SMILES	RE007 growth inh	StopGo reporter	SARS PLP yeast
CSc1ccc(C2=CC(=O)C[C@H](c3ccc4c(c3)OCO4)C2)cc1	2%	-2%	0%
Cc1ccc(CN2C(=O)C(C)Nc3ncnc(N4CCOCC4)c32)cc1 (stereo not drawn)	2%	-8%	3%
CCOC(=O)[C@H]1[C@H]2COc3ccccc3[C@@H]2N2C(=O)c3ccc(Cl)cc3NC(=O)[C@@]12C	-27%	?	-1%
C[C@H](CO)N1C[C@H](C)[C@@H](CN(C)S(=O)(=O)c2ccc(F)cc2)Oc2c(NC(=O)Cc3ccccc3)cccc2C1=O	0%	1%	4%
Cc1ccc(NC(=O)C(=O)NCc2ccncc2)cc1	5%	16%	1%
C#CCOCCOCCOCCNc1nc(N2CCN(C(=O)C([C@@H](C)O)n3cc([C@@H](N)CCCCN)nn3)CC2)nc(N2CCN(C(=O)[C@H](CC(N)=O)n3cc([C@@H](N)C(C)C)nn3)CC2)n1 (stereo partly drawn)	-1%	-9%	-2%
CCOc1ccccc1NC(=O)CN1c2cccc3cccc(c23)S1(=O)=O	-16%	-15%	-3%
CCC(Oc1ccccc1)C(=O)OCC(=O)Nc1sccc1C(N)=O (stereo not drawn)	5%	?	0%
CN(CC(=O)Nc1ccc(Cl)c(C(F)(F)F)c1)C(=O)c1cccc(N2C(=O)CCC2=O)c1	-9%	?	-2%
O=C1c2ccc(-c3ccc(Cl)c(C(F)(F)F)c3)cc2S(=O)(=O)c2cccc(C(=O)N3CCN(c4ccc(Cl)cn4)CC3)c21	9%	-7%	-3%
COCCN(C(=O)CSc1nc2ccccc2o1)c1c(N)n(Cc2ccccc2)c(=O)[nH]c1=O	-5%	-15%	-3%
Cc1c(CCOC(=O)c2cc([N+](=O)[O-])cc([N+](=O)[O-])c2)sc[n+]1CCCCS(=O)(=O)[O-]	6%	4%	2%
O=C(CN1C(=O)NC(c2ccc(F)cc2)C1=O)Nc1ccc2c(c1)OCCO2 (stereo not drawn)	4%	-3%	4%
Cc1ccc(-c2nnc(SCC(=O)Nc3cccnc3Cl)n2N)cc1	4%	27%	3%
COc1cc(C(=O)OC(C)C(=O)NC(=O)NC2CCCCC2)ccc1OC(F)F (stereo not drawn)	-4%	-13%	-6%
O=C(Nc1ccc(SC(F)F)cc1)c1ccccc1F	-24%	50%[activator]	-8%
Cc1nn(CC(=O)NCCC2=CCCCC2)c(C)c1S(=O)(=O)N(C)C	?	-20%	2%
CCc1nn2c(=O)cc(COC(=O)c3cc(Cl)c(OC)c(OC)c3)nc2s1	9%	-19%	-3%
CN(C(=O)c1cccc(NC(=O)Cc2ccc([N+](=O)[O-])cc2)c1)C1CCC1	4%	?	3%
COc1ccc(Sc2ccc(-c3nc4cnccn4c3NC3CCCCC3)cc2OC)cc1	3%	?	9%
Cc1cc(C)n2nc(SCC(=O)N3CCCCC3C)nc2n1 (stereo not drawn)	13%	-1%	4%
O=C(O)CCc1ccc(S(=O)(=O)Nc2ccccc2N2CCCCC2)cc1	-1%	-17%	-9%
O=C(COC(=O)c1ccccc1O)NCc1ccccc1Cl	-19%	22%	-2%
O=C1C=C(c2cccc(Br)c2)C[C@@H](c2ccc(Cl)cc2)C1	9%	-10%	-1%
COc1ccc([C@]2(C(C)C)ON(c3ccccc3C(F)(F)F)C2=O)cc1	-13%	-25%	3%
CCC(C)c1ccc(S(=O)(=O)N2CCN(CC(O)CN3CCOCC3)CC2)cc1 (stereo not drawn)	9%	-6%	3%
COc1cc(C(=O)OCC(=O)N2CCCC2)cc2c1OCCO2	-13%	-8%	0%
COc1ccccc1C1=CN(Cc2ccccc2)CCC1=O	5%	-3%	-4%
COc1ccc([C@H]2CC(=O)C=C(c3ccnc4ccc(Cl)cc34)C2)cc1	1%	?	5%
COc1ccc2nc(NC(=O)c3cccc(N4C(=O)CCC4=O)c3)sc2c1	-13%	19%	1%

Gathered by group: the entries above with fluorine
SMILES	RE007 growth inh	StopGo reporter	SARS PLP yeast
C[C@H](CO)N1C[C@H](C)[C@@H](CN(C)S(=O)(=O)c2ccc(F)cc2)Oc2c(NC(=O)Cc3ccccc3)cccc2C1=O	0%	1%	4%
CN(CC(=O)Nc1ccc(Cl)c(C(F)(F)F)c1)C(=O)c1cccc(N2C(=O)CCC2=O)c1	-9%	?	-2%
O=C1c2ccc(-c3ccc(Cl)c(C(F)(F)F)c3)cc2S(=O)(=O)c2cccc(C(=O)N3CCN(c4ccc(Cl)cn4)CC3)c21	9%	-7%	-3%
O=C(CN1C(=O)NC(c2ccc(F)cc2)C1=O)Nc1ccc2c(c1)OCCO2 (stereo not drawn)	4%	-3%	4%
COc1cc(C(=O)OC(C)C(=O)NC(=O)NC2CCCCC2)ccc1OC(F)F (stereo not drawn)	-4%	-13%	-6%
O=C(Nc1ccc(SC(F)F)cc1)c1ccccc1F	-24%	50%[activator]	-8%
COc1ccc([C@]2(C(C)C)ON(c3ccccc3C(F)(F)F)C2=O)cc1	-13%	-25%	3%

Other entries.
SMILES	RE007 growth inh	StopGo reporter	SARS PLP yeast
Cc1[nH][nH]c(=O)c1C	4%	-18%	0%
CCCNC(=O)c1ccc(N2CCC3(CC2)CC(c2cccc(Br)c2)=NO3)c(NC(=O)c2ccccc2)c1	-9%	-23%	4%
COc1ccccc1-n1c(SCC(=O)Nc2cc(C)on2)nc2c(c1=O)SCC2	-6%	-9%	0%
CCCNC(=O)C(CC)NC(=O)c1ccc(C#N)cc1 (stereo not drawn)	9%	1%	-6%
CC(C)(C)C(CCl)C(=O)NN=C(c1ccccc1)c1ccccc1 (stereo not drawn)	-5%	16%	0%
c1ccc(NC2=NCCN2CC2CCC2)cc1	-19%	-7%	1%
C[C@H](NC(=O)OCc1ccccc1)C(=O)N[C@@H](Cc1c[nH]c2ccccc12)C(=O)O	-3%	0%	-2%
CC(=O)OC1C=CC2[C@H]3Cc4ccc(O)c5c4[C@@]2(CCN3C)C1O5 (stereo partly drawn)	8%	-19%	6%
CCCCc1ccc(CC(=O)Nc2cc(S(=O)(=O)N3CCOCC3)ccc2O)cc1	-8%	-11%	2%
CCCCn1c(N)c(N(CCOC)C(=O)CN2C(=O)C3CCCCC3C2=O)c(=O)[nH]c1=O (stereo not drawn)	-7%	-18%	6%
COc1ccc(-c2csc(N)n2)cc1F	-19%	84%[activator]	-4%
C/C(=N\NC(=O)CSCc1ccc([N+](=O)[O-])cc1)c1ccccc1	-2%	-40%	-2%
COC(=O)c1ccc(OCC(=O)Nc2ccccc2C(=O)NC2CC2)cc1	4%	-27%	-11%
O=C1N[C@H](Cc2ccccc2)COC(=O)[C@H](Cc2ccc(F)cc2)C/C=C\C[C@@H]1CC(=O)N(CCO)Cc1ccccc1	9%	-24%	-26%
C=CC(=O)Nc1cccc(Oc2ncnc3[nH]cc(-c4cnc5ccccc5c4)c23)c1	4%	-20%	-1%
O=c1c(/C=N/OCc2ccc(Cl)cc2Cl)c[nH]n1-c1cccc(Cl)n1	26%	-19%	-3%
COC(=O)C1=C(c2ccc(OC)c(OC)c2)C[C@@H]2CC[C@H]1N2C(=O)NCCO	-18%	-7%	1%
O=C1c2ccc3c4c(ccc(c24)C(=O)N1CCCCO)C(=O)N(CCCCO)C3=O	-4%	?	8%
COCCN(C(=O)c1cc(Cl)nc2ccccc12)c1c(N)n(Cc2ccccc2)c(=O)[nH]c1=O	4%	-9%	1%
COc1cccc(NC(=O)CN(C)C(=O)c2cc(-c3ccc(C)o3)nc3ccccc23)c1	-6%	-20%	-2%
O=S1(=O)N[C@@H](CC2CCCCC2)COc2cc(Br)ccc21	14%	?	-30%
CN(C)S(=O)(=O)c1ccc(Cl)c(C(=O)OCC(=O)NC(=O)NC2CCCC2)c1	-6%	-27%	-2%
CC(C)(C)NC(=O)CN1CCCN(C(=O)c2cccc(S(=O)(=O)N3CCc4ccccc43)c2)CC1	-24%	-7%	3%
O=C(NCc1n[nH]c(=S)n1-c1cccc(C(F)(F)F)c1)c1ccc(S(=O)(=O)N2CCCC2)cc1	0%	12%	1%
COC(=O)[C@@]12CCCCN1[C@H](c1ccc(-c3cccc(Cl)c3)c(OC)c1)[C@@H]1C(=O)N(C)C(=O)[C@@H]12	34%	-3%	0%
CCc1nc2ccccc2c(C(=O)OCC(=O)N(C)Cc2ccccc2)c1C	5%	-24%	-10%
CC(C)[C@H](NC(=O)c1ccc(F)cc1)C(=O)N(C)Cc1cccs1	6%	?	0%
COC(=O)c1ccccc1NC(=O)CNc1ccc(F)c(S(=O)(=O)N2CCOCC2)c1	1%	-25%	2%
CCOC(=O)c1cc(-c2ccccc2)n(CC(=O)NC(C)(C)C)c1C	2%	4%	-6%
COc1ccc(CN2Cc3cccc4c3[C@@H](CC2=O)[C@H](O)[C@H](O)C4)cc1	-1%	0%	6%
CC(Sc1ccc(S(=O)(=O)N2CCN(C)CC2)cn1)C(=O)NC1CCCCC1 (stereo not drawn)	2%	-24%	-2%
COc1cc(OC)cc(-c2cc3ccc(OC)cc3cn2)c1	40µM*	-5%	0%
COc1ccc(/C(C)=N/NC(=O)CNC(=O)c2cccs2)cc1	-4%	7%	3%
Fc1ccc(N2CCN(c3nc(CN4CCOCC4)nc4scc(-c5ccccc5)c34)CC2)cc1	2%	?	-7%
C[C@@H]1COC(=O)[C@@H](Cc2ccc(F)cc2)C/C=C\C[C@@H](CC(=O)NCCO)C(=O)N1	5%	-5%	2%
Nc1c(C(=O)CSc2ncccn2)c(=O)[nH]c(=O)n1C1CC1	4%	24%	-1%
Cc1ccc(C(=O)Oc2ccc(/C=N/NC(N)=O)cc2)cc1	6%	14%	4%
CCN1C(=O)[C@H]2[C@@H](c3ccc(-c4cccc(Cl)c4)c(OC)c3)N[C@@](CC(C)C)(C(=O)OC)[C@H]2C1=O	7%	?	0%
O=C(NCCCc1ccccc1)c1cccc(S(=O)(=O)N2CCOCC2)c1	2%	2%	2%
CC1CCN(C(=O)c2nc[nH]c2C(=O)N2CCC(C)CC2)CC1	12%	11%	1%
COc1cc(OC)cc(C(=O)NCc2ccc3[nH]c(C)cc3c2)c1	32%	10%	2%
CC(C)(C)OC(=O)NCCCCCNC(=O)c1nc[nH]c1C(=O)N1CCN(c2ccccc2)CC1	9%	?	-4%
COc1ccc(CN(C)C(=S)Nc2ccc(Cl)cc2Cl)cc1	?	37%[activator]	8%
COc1ccccc1C(=O)NC(=O)COC(=O)CCS(=O)(=O)c1ccc(C)cc1	2%	1%	2%
COc1cccc(/C=C/C(=O)NNC(=O)c2ccncc2)c1OC	0%	20%	0%
Cc1ccc(NC(=O)CSc2nnc(C3CC3)n2C)cc1S(=O)(=O)N1CCCCC1	1%	-20%	5%
Fc1ccc(/C=N/NC(=S)Nc2cccnc2)cc1F	0%	-3%	1%
CC(Sc1nnc(C2CC2)n1Cc1ccccc1)C(=O)N1CCNC1=O (stereo not drawn)	-7%	-8%	-4%
CCCCN(C(C)=O)c1ccc(S(=O)(=O)NC2=NCCCCC2)cc1NC(C)=O	-2%	-7%	4%
C[C@@H]1CN([C@@H](C)CO)C(=O)c2cccc(NS(C)(=O)=O)c2O[C@H]1CN(C)Cc1ccc(C(=O)O)cc1	-14%	-13%	-3%
The results go on:
SMILES	RE007 growth inh	StopGo reporter	SARS PLP yeast
CN(CC(=O)NC1CCN(Cc2ccccc2)CC1)S(=O)(=O)c1ccc(Cl)s1	7%	?	6%
CC1CCCN(C(=O)CSc2nnc(-c3ccncc3)n2C)C1 (stereo not drawn)	-2%	5%	-1%
Cc1ccc(C(=O)Nc2ccnc(-c3cccnc3)n2)cc1	-13%	52%[activator]	-3%
COC(=O)[C@]1(C)N[C@H](c2ccc(-c3ccc(F)cc3)cc2)[C@@H]2C(=O)N(C)C(=O)[C@@H]21	-5%	-26%	-1%
COc1ccc(C2C(C(C)=O)=C(O)C(=O)N2c2nc3ccccc3s2)cc1OC (stereo not drawn)	5%	9%	1%
O=C(CSc1nnc2ccc(-c3ccc(F)cc3)nn12)N1CCCC1	8%	-13%	2%
O=C(NC(=S)Nc1cccnc1Cl)c1ccco1	?	34%[activator]	-7%
C[C@@H]1CN([C@H](C)CO)C(=O)c2cc(NS(=O)(=O)c3cn(C)cn3)ccc2O[C@@H]1CN(C)S(C)(=O)=O	-4%	-25%	-14%
CC1CCN(C(=O)c2[nH]cnc2C(=O)NC2CCN(C(=O)OC(C)(C)C)CC2)CC1	4%	-11%	-5%
N#CC1(NC(=O)CSc2nnc(Cc3ccccc3)o2)CCCCC1	12%	11%	4%
CC1CCN(CCCNC(=O)c2cc3c(Cl)nc4ccccc4c3s2)CC1	1%	-23%	-2%
Cc1ccc(C(=O)c2ccccc2C(=O)OCC(=O)N2CC(C)CC(C)C2)cc1 (stereo not drawn)	-11%	-17%	-8%
O=C1N[C@@H](c2ccccc2)COC(=O)[C@@H](Cc2ccc(F)cc2)CC/C=C/C[C@@H]1CC(=O)N(CCO)Cc1ccccc1	3%	-23%	0%

Screening data: PubChem, National Center for Advancing Translational Sciences (NCATS)

This is a subset; rates above refer to the full screens.
